H5N1 antiviral – MDCK cell protection from H5N1 avian flu; AID 740, 2007; inhibition, % at 50 µM; cytopathic effect, luminescence, 72 h; stronger effect = higher value; no value below 0 was filed and about half of the inactive calls have no number; reference of the scale not given here; 0.07% of 96,000 active; in the data active = inhibition above about 25%
* hit, by the source's call; i = inactive. These rows are one share of the data; count on the stated rates, not on these rows.

SMILES	H5N1 antiviral
Cc1ccc(S(=O)(=O)NCC2CCC(C(=O)NCc3ccco3)CC2)cc1 (configuration not stated)	1.1
CNC(=O)CSc1nc(-c2ccccc2)c(-c2ccccc2)[nH]1	i
Cc1nn(C)c(C)c1S(=O)(=O)N1CCC(C(=O)NC(C)c2ccccc2)CC1 (configuration not stated)	i
O=c1c2ccccc2nc2c3ccccc3c(NCCN3CCOCC3)nn12	i
CCOC(=O)c1ccc(COC(=O)c2cc3ccccc3oc2=O)o1	0.4
CC1CCC2(CC1)N=C(N)Nc1nc3ccccc3n12 (configuration not stated)	i
Cc1nn2c(-c3ccco3)nnc2c2ccccc12	7.9
Cn1c(CSc2nc3ccccc3s2)n[nH]c1=S	i
Cc1cccc(Nc2n[nH]c(=S)s2)c1C	i
COc1ccc(N2CCN(CC(=O)N3CCC(C)CC3)CC2)cc1	i
Cc1cc(NC(=O)c2ccco2)ccc1-n1cnnn1	i
O=C(Cc1nc(-c2ccc(Br)s2)cs1)NCCN1CCOCC1	i
Cc1cc(C(=O)OCc2nnc(-c3ccccc3)o2)c(C)n1-c1ccccc1	i
CCOc1ccccc1C(=O)OCC(=O)Nc1ccc(OC(F)F)cc1	0.3
COc1ccc(-c2c(C)oc3c(CN4CCN(C)CC4)c(O)ccc3c2=O)cc1	3.3
CC(=O)NC(CC(C)C)C(=O)NC(=O)NCc1ccccc1 (configuration not stated)	0.1
CC1CCN(C(=O)C2CC(c3ccc(F)cc3)=NO2)CC1 (configuration not stated)	i
Cn1nnc(NC(=O)CSc2nnnn2-c2ccc(F)cc2)n1	i
CCCN1CCN(CCCNC(=O)C2CCCN(c3nnc(-n4cccc4)s3)C2)CC1 (configuration not stated)	0.4
COc1ccccc1CC(=O)Nc1ccccc1O	2.5
CCCC(=O)Nc1ccc(Sc2ccc([N+](=O)[O-])cc2)cc1	i
CCn1c(SCC(=O)Nc2ccccc2C)nnc1-c1ccccc1O	i
Cc1cc(NCCO)c2ccccc2n1	0.8
O=C(CSc1nnc(Cn2nnc3ccccc32)o1)Nc1cccc(Cl)c1	2.2
CCC(=O)Nc1cc(C(=O)OC(C(=O)c2ccc(C)c(C)c2)c2ccccc2)ccc1C (configuration not stated)	i
SMILES	H5N1 antiviral
CSc1nc(C)cc(OCC#N)n1	i
Cc1onc(-c2ccccc2)c1C(=O)NC(CC(=O)O)c1ccc(OC(C)C)cc1 (configuration not stated)	1.6
COc1ccc(N2CC(C(=O)Nc3ncccc3C)CC2=O)cc1 (configuration not stated)	i
O=c1nc(N2CCOCC2)ccn1-c1nc(-c2ccccc2)oc1-c1ccccc1	8.5
COC(=O)CSc1nnc(C)n1-c1cccc(C#N)c1	0.4
S=C(NN=C1CCCCCC1)Nc1ccc(Cl)cc1	i
FC(F)(F)c1cc(-c2ccccc2)nc(NCc2cccnc2)n1	1.1
CC1CCCCC1NS(=O)(=O)c1ccc(S(=O)(=O)N2CCCC2)cc1 (configuration not stated)	4.0
CCc1nccn1S(=O)(=O)c1ccc2ccccc2c1	0.3
CC(C)OC(=O)C(C#N)c1nc2ccccc2nc1N1CCN(Cc2ccccc2)CC1 (configuration not stated)	i
CCCCSc1nnc2[nH]c(=O)cc(N)n12	i
O=C(CCn1cccc1)Nc1cc(F)ccc1F	0.2
Cc1cc(Cl)ccc1N1C(=O)CC(SCCC(=O)O)C1=O (configuration not stated)	i
CCOC(=O)c1ccccc1NC(=O)N[C@@H](C)C(=O)OC	i
O=C(OC1CCOC1=O)c1cc(-c2ccc(Cl)cc2)nc2ccccc12 (configuration not stated)	i
CCC(=NCCCn1ccnc1)c1c(O)n(Cc2ccccc2)c(=O)[nH]c1=O	1.4
Cc1cc(Nc2cccc(F)c2)n2c(n1)nc1ccccc12	0.8
C/C(=N\NC(=O)c1c(Br)c(C)nn1C)c1ccc(NC(=O)C(C)Oc2ccc(Cl)cc2C)cc1 (configuration not stated)	i
Cc1cc(N)n(-c2nc(-c3cccnc3)nc3ccccc23)n1	i
CCN(CC)S(=O)(=O)c1csc(C(=O)Nc2ccccn2)c1	2.4
CC(C(=O)O)N1C(=O)c2ccccc2C1=O (configuration not stated)	i
O=C(Nc1nc(-c2ccc3c(c2)OCCO3)cs1)c1ccc(S(=O)(=O)N2CCCCC2)cc1	i
Cc1ccc(S(=O)(=O)Nc2cccc3ncccc23)s1	2.5
O=C(CSc1nc2c(c(=O)n1-c1ccc(F)cc1)SCC2)NCc1ccco1	0.1
N#Cc1c(N)nc2c(c1N)CC(=O)N2c1ccc(Cl)cc1	i

Structures above containing an aryl thioether with sulfur outside any ring, in the order listed:
SMILES	H5N1 antiviral
CNC(=O)CSc1nc(-c2ccccc2)c(-c2ccccc2)[nH]1	i
Cn1c(CSc2nc3ccccc3s2)n[nH]c1=S	i
Cn1nnc(NC(=O)CSc2nnnn2-c2ccc(F)cc2)n1	i
CCCC(=O)Nc1ccc(Sc2ccc([N+](=O)[O-])cc2)cc1	i
CCn1c(SCC(=O)Nc2ccccc2C)nnc1-c1ccccc1O	i
O=C(CSc1nnc(Cn2nnc3ccccc32)o1)Nc1cccc(Cl)c1	2.2
CSc1nc(C)cc(OCC#N)n1	i
COC(=O)CSc1nnc(C)n1-c1cccc(C#N)c1	0.4
CCCCSc1nnc2[nH]c(=O)cc(N)n12	i
O=C(CSc1nc2c(c(=O)n1-c1ccc(F)cc1)SCC2)NCc1ccco1	0.1

Carrying on.
SMILES	H5N1 antiviral
CC(C)c1cc[n+](-c2nc([O-])sc2C=O)cc1	i
Cc1nc2c(F)c(F)c(C(F)(F)F)c(F)c2[nH]1	0.1
Cc1ccc(C(=O)NC(N2CCCC2)C(Cl)(Cl)Cl)cc1 (configuration not stated)	0.3
Cc1ccc(N2CC(C(=O)Nc3cc(C)on3)CC2=O)cc1 (configuration not stated)	1.3
O=C1c2ccccc2C(Nc2ccc(Cl)cc2)N1CCN1CCOCC1 (configuration not stated)	i
Cc1nc2ncnn2c(N2CCN(c3cccc(C(F)(F)F)c3)CC2)c1C	1.5
O=C1C2C(c3ccccc3)C=CC(c3ccccc3)C2C(=O)N1c1ccncc1 (configuration not stated)	1.0
CCCCC(=O)NC(c1ccco1)c1c(O)ccc2ccccc12 (configuration not stated)	0.2
CCCC(O)(CCN1CCCCC1)c1ccc(OCC)cc1 (configuration not stated)	0.7
O=C(COC(=O)c1n[nH]c2ccccc12)NC(=O)NC12CC3CC(CC(C3)C1)C2	i
CS(=O)(=O)N1CCN(c2ccc(NC(=O)c3cccnc3Cl)cc2)CC1	i
c1nc(NC2CCCCCC2)c2[nH]cnc2n1	0.7
O=C1C2C3C=CC(C3)C2C(=O)N1c1ccc2c(c1)CCC2 (configuration not stated)	5.0
C#CC1(O)CC(C)NCC1(C)CCC#N (configuration not stated)	i
COc1ccc(N2CCCCn3c2nc2c3c(=O)[nH]c(=O)n2C)cc1	2.8
O=C(NC1(C(F)(F)F)NC(=O)N(C2CCCCC2)C1=O)c1cccs1 (configuration not stated)	i
O=C(Cc1cccs1)Nc1ccc(C(=O)O)cc1	0.2
Cc1c(N=Cc2c(O)n(C3CCCCC3)c(=O)[nH]c2=O)c(=O)n(-c2ccccc2)n1C	2.0
CCOc1ccc(NC(=O)CCS(=O)(=O)c2cccc3nsnc23)cc1	0.3
O=C(O)COc1ccc(Br)cc1/C=N/O	0.6
COc1cc(C2C(C(C)=O)=C(O)C(=O)N2CCc2ccc(OC)c(OC)c2)ccc1O (configuration not stated)	0.7
O=C(CC(Cc1ccccc1)c1ccco1)NC1CCCCC1 (configuration not stated)	1.9
COC(=O)CC1SC(=O)NC1=O (configuration not stated)	i
Clc1ccccc1Cn1nnc(-c2cccs2)n1	i
Cc1ccc(Oc2ccc3c(c2)C(=O)N(c2cccc4cccnc24)C3=O)cc1	0.3
SMILES	H5N1 antiviral
CSC1=NCCN1C(=O)c1ccc(S(=O)(=O)N2CCOCC2)cc1	3.0
CCn1c(=NC(=O)c2ccco2)sc2cccc(F)c21	3.1
Nc1c(C(O)(C(F)(F)F)C(F)(F)F)ccc2ccccc12	0.4
Cc1[nH]nc2c1C(c1ccc(F)cc1)C(C#N)=C(N)O2 (configuration not stated)	i
COc1ccc(S(=O)(=O)N(C)c2ccc(C(=O)NCC3CCCO3)cc2)cc1 (configuration not stated)	2.3
COCCOC(=O)c1c(C)oc2ccc(OCC=C(C)C)cc12	0.6
C=C(C)CSc1nnc(-c2ccc(OC)c(OC)c2)n1N	0.8
Cc1ccc(OCc2n[nH]c(=S)n2C2CCCCC2)cc1	0.4
Cc1ccc2c(c1)N(CCC(=O)N1CCC3(CC1)OCCO3)C(=O)CO2	i
Cc1cc(NC(=O)COC(=O)c2c(C)nn(Cc3ccccc3)c2C)no1	i
CCOC(=O)C1CCN(c2ncnc3nc[nH]c23)CC1	0.2
[O-]/[N+](=C/c1ccc(F)cc1)c1ccccc1	i
O=C(Nc1ccc2c(c1)OCO2)Nc1cnccn1	i
CCCCC(=O)Nc1ncc(Br)s1	6.7
CCOC(=O)N1CCN(S(=O)(=O)c2ccc(C)cc2)C1c1ccccc1 (configuration not stated)	0.1
CC(SCc1ccccc1)C(=O)NN=C1CCN(C)CC1 (configuration not stated)	i
CCOC(=O)NC(Nc1ncccn1)(C(F)(F)F)C(F)(F)F	i
COc1ccc2cc(C3(C)NC(=O)N(CC(=O)NCc4ccco4)C3=O)ccc2c1 (configuration not stated)	i
CCN(CC(=O)NC1CCS(=O)(=O)C1)c1nc(-c2ccccc2)nc2ccccc12 (configuration not stated)	0.8
O=C(c1ccc(N2CN(C(=O)c3ccco3)c3nc4ccccc4nc32)cc1)N1CCOCC1	i
CCc1ncc(C(O)c2cccc3ccccc23)n1C (configuration not stated)	i
CC(C)(C)c1cc(CN2CCC(O)CC2)cc(C(C)(C)C)c1O	i
OC1CCN(c2ncnc3nc[nH]c23)CC1	1.5
O=C(Cn1c(-c2cncs2)nc2ccccc21)NCCc1ccccc1	1.7
C(=C\c1cccc2ccccc12)/c1nnc(-c2cccs2)o1	0.8
SMILES	H5N1 antiviral
COC(=O)CN(c1ccccc1)S(=O)(=O)c1ccc(F)cc1	i
O=c1c2nnn(Cc3ccccc3)c2ncn1-c1ccccc1	i
CCOc1cccc(OCCCCN2CCCCC2)c1	0.5
COc1ccc(-c2nnc(SCC(=O)NCc3ccco3)o2)cc1	i
Cc1cc(C)n(-c2ccc(C(=O)N3CCc4ccccc43)cc2)n1	i
CCCCN1C(=O)/C(=C2\SC(N3CCCCC3)=NC2=O)c2ccccc21	0.0
O=C(c1ccccc1)c1ccc2ccccc2n1	1.3
Nc1[nH]nc2nc(NCc3ccccc3)c3c(c12)CCN(Cc1ccccc1)C3	i
CCC(=O)c1cn(Cc2ccccc2C#N)c2ccccc12	0.2
C=CCn1cc(C(=O)NCCCOCC)c(=O)c2cc(S(=O)(=O)N(CC)CC)ccc21	i
CCOC(=O)Cc1csc(NC(=O)c2ccco2)n1	0.7
COc1cc(NC(=O)CSc2nnc(C)s2)cc(OC)c1	i
Cc1cc(C)c2nc(SCc3ccc([N+](=O)[O-])cc3)nc(C)c2c1	i
CCS(=O)(=O)N1CCC(C(=O)NCc2ccc(F)cc2)CC1	i
CC1CCCN(C(=O)C2CCN(CCCc3ccccc3)CC2)C1 (configuration not stated)	i
COc1ccc2cc3cc(C(=O)NCCN4CCN(Cc5ccccc5)CC4)oc3nc2c1	i
Cc1c(NC(=O)C2CCCN(S(=O)(=O)c3cnc[nH]3)C2)c(=O)n(-c2ccccc2)n1C (configuration not stated)	i
COCCCN(C(C)=O)c1nc(-c2ccc(OC)cc2)cs1	0.1
CCc1cccc(CC)c1NC(=O)CSc1nnc(C(C)C)n1CC	1.7
Clc1ccc(-c2nnc3sc(-c4ccc(Br)o4)nn23)cc1	i
CCNc1nnc(-c2ccc(C)cc2)o1	i
Cn1c(SCc2cccnc2)nc2cccnc21	0.5
COc1cc(OC)c(-c2nc3c[n+](CC(=O)c4ccccc4)ccc3n2C)cc1OC	i
Cc1nc2oc3ccccc3c(=O)c2c(=O)n1Cc1ccccc1	2.8
O=C(O)c1cnn2c(C(F)(F)F)cc(-c3ccco3)nc12	i
SMILES	H5N1 antiviral
CN(C1CCCCC1)S(=O)(=O)c1ccc2c(c1)c(=O)c(C(=O)NCCCN1CCCC1)cn2C	0.5
CCCN(CCC)CC(O)COc1ccc([N+](=O)[O-])cc1 (configuration not stated)	i
COc1cc(C2Nc3cccc4cccc(c34)N2)cc(OC)c1OC(C)=O	i
Cc1nc(SCC(=O)NCc2ccc3c(c2)OCO3)c(C#N)c2c1CCCC2	0.5
c1cc(C2CCCCC2)ccc1Oc1nc(N2CCOCC2)nc(N2CCOCC2)n1	0.2
OC(c1cccs1)c1nccc2ccccc12 (configuration not stated)	1.6
CC(C)CCNC(=O)COC(=O)c1ccc(Br)o1	i
Cc1cc(NC(=O)Cn2c(=O)c3c(ncn3CCC(C)C)n(Cc3ccccc3)c2=O)no1	1.1
CC1CC(C)CN(C(=O)C(NS(=O)(=O)c2ccc3c(c2)oc(=O)n3C)C(C)C)C1 (configuration not stated)	1.3
CC(C)(C)c1nc(N2CCN(C(=O)c3ccco3)CC2)c2nnn(Cc3ccccc3)c2n1	i
C/C(=N/NC(=O)c1cc(C(C)C)[nH]n1)c1cccs1	0.6
CCOC(=O)CCCNC(=O)c1cncc(O)c1	0.4
Cc1ccc2cc3c(N)c(C(=O)N4CC(=O)Nc5ccccc54)sc3nc2c1	0.9
CCCCOc1ccc(C(=O)NC)cc1	i
COc1ccc2c(c1)CC1(CN2C)C(=O)NC(=O)N(CCc2ccccc2)C1=O (configuration not stated)	i
Cc1nc2nc(CSc3nnc(C)s3)cc(=O)n2[nH]1	i
Cn1ncc(C#N)c1/N=C/N1CCCC1	0.7

Fetched by compound from the list above, four records:
SMILES	H5N1 antiviral
COc1cc(C2Nc3cccc4cccc(c34)N2)cc(OC)c1OC(C)=O	i
Cn1ncc(C#N)c1/N=C/N1CCCC1	0.7
CN(C1CCCCC1)S(=O)(=O)c1ccc2c(c1)c(=O)c(C(=O)NCCCN1CCCC1)cn2C	0.5
CC(C)CCNC(=O)COC(=O)c1ccc(Br)o1	i

Four neighbouring compounds from above, for reference:
SMILES	H5N1 antiviral
CCCCOc1ccc(C(=O)NC)cc1	i
COc1ccc2c(c1)CC1(CN2C)C(=O)NC(=O)N(CCc2ccccc2)C1=O (configuration not stated)	i
Cc1nc2nc(CSc3nnc(C)s3)cc(=O)n2[nH]1	i
Cn1ncc(C#N)c1/N=C/N1CCCC1	0.7

Compound activity as filed in PubChem.
